# Yeast UUG start – alters start codon recognition fidelity in yeast; S. cerevisiae UUG-firefly luciferase reporter, luminescence/redox ratio; activity score, % at 18.7 µM; hit rate 0.13% among 350,000;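 active means replicate mean at a twofold rise or more, about +100% in these data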;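 further: firefly luciferase made from a UUG start codon reports start codon fidelity; reporter light over untreated wells divided by growth signal over untreated wells; some hits fall short of that in this replicate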
# HIV Env fusion – blocks HIV Env-driven cell-cell fusion. HeLa-JRFL Env/CEM21 cell fusion, luciferase. inhibition, % at 12.3 µM. hit rate 1.1% among 360,000. AID 651610;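 active means mean replicate inhibition score of at least 50 and every replicate individually at or above 50; inconclusive means only one of the two criteria met; inactive means mean below 50 and not all replicates reaching 50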;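 further: 0% = plate neutral controls and 100% = maraviroc near 300 nM; one replicate is shown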
# Numbers without * were called inactive; ? = inconclusive; [ ] = dose if it differs, or a comment. Not all compounds are listed (hit frequency here may not be typical).
# The line under a structure holds: HIV Env fusion | Yeast UUG start
Cc1noc(C)c1NC(=O)Nc1ccc2c(c1)C(=O)N([C@@H](C)CO)C[C@@H](C)[C@@H](CN(C)Cc1ccncc1)OCCCC[C@H](C)O2
  2.8[16.7 µM] | -3.1
COCc1cn(CC[C@@H]2CC[C@H](NC(=O)Nc3ccc(Cl)cc3)[C@@H](CO)O2)nn1
  13.1[16.7 µM] | 4.7
CC(C)CC#Cc1ccc2c(c1)O[C@H](CN(C)C(=O)c1ccccn1)[C@H](C)CN([C@H](C)CO)S2(=O)=O
  15.4[16.7 µM] | 1.1
C[C@H](CO)N1C[C@H](C)[C@@H](CN(C)Cc2ccc(C(=O)O)cc2)OCCCC[C@H](C)Oc2ccc(NS(C)(=O)=O)cc2C1=O
  -15.0[16.7 µM] | 0.3
COc1ccc(NC(=O)Nc2ccc3c(c2)C(=O)N([C@H](C)CO)C[C@H](C)[C@H](CN(C)S(=O)(=O)c2ccc(Cl)cc2)O3)cc1
  ? | -0.6
CCCNC(=O)N(C)C[C@@H]1Oc2cc(-c3ccc(C)cc3)ccc2S(=O)(=O)N([C@H](C)CO)C[C@H]1C
  -1.2[16.7 µM] | 10.8
C[C@H]1CN([C@@H](C)CO)C(=O)c2cccc(N(C)C)c2O[C@@H]1CN(C)Cc1ccc(C(F)(F)F)cc1
  19.4[16.7 µM] | 0.7
C[C@@H]1CCCCO[C@@H](CN(C)C(=O)Nc2ccc(F)cc2)[C@@H](C)CN([C@H](C)CO)C(=O)c2cc(NC(=O)CCCN(C)C)ccc2O1
  8.9[16.7 µM] | -3.3
O=C(C[C@@H]1C[C@H]2c3cc(NC(=O)NC4CCCC4)ccc3O[C@H]2[C@H](CO)O1)NCc1ccc(Oc2ccccc2)cc1
  -28.4[16.7 µM] | 49.7
C[C@@H]1CN([C@H](C)CO)C(=O)c2cc(NC(=O)Nc3ccccc3)ccc2O[C@H]1CN(C)S(=O)(=O)c1ccccc1
  22.1[16.7 µM] | 5.5
C[C@@H]1CN([C@H](C)CO)C(=O)c2cc(/C=C/c3ccccc3)cnc2O[C@@H]1CN(C)C(=O)Nc1ccc(C(F)(F)F)cc1
  -0.1[16.7 µM] | 3.3
CCCN1C[C@@H](C)[C@H](OC)CN(C)C(=O)c2cc(NC(=O)c3ccc(F)cc3)ccc2OC[C@H]1C
  -9.0[16.7 µM] | 3.7
C[C@H](CO)N1C[C@H](C)[C@H](CN(C)S(C)(=O)=O)Oc2cc(-c3ccncc3)ccc2S1(=O)=O
  -26.5[16.7 µM] | -7.5
COc1cccc(S(=O)(=O)Nc2ccc3c(c2)[C@@H]2C[C@@H](CC(=O)NCc4cccc(F)c4)O[C@H](CO)[C@@H]2O3)c1
  25.5[16.7 µM] | 11.8
COc1ccc(NC(=O)Nc2cccc3c2O[C@@H](CN(C)C(=O)Nc2c(C)noc2C)[C@@H](C)CN([C@H](C)CO)C3=O)cc1
  -42.4[16.7 µM] | -6.3
COc1ccc(CNC(=O)C[C@@H]2C[C@@H]3c4cc(NC(=O)CC5CC5)ccc4O[C@@H]3[C@@H](CO)O2)cc1
  -3.1[16.7 µM] | -3.4
C[C@H](CO)N1C[C@H](C)[C@@H](CN(C)C(=O)c2ccccn2)Oc2ncc(-c3ccc(F)cc3)cc2C1=O
  6.5[16.7 µM] | -12.4
COc1ccccc1NC(=O)N[C@@H]1CC[C@@H](CC(=O)N[C@@H](C)c2ccccc2)O[C@H]1CO
  -7.4[16.7 µM] | -1.5
CCCNC(=O)C[C@@H]1CC[C@H]2[C@@H](COc3ccc(NS(=O)(=O)CC)cc3C(=O)N2C)O1
  -17.4[16.7 µM] | -11.7
COc1ccc(NC(=O)N(C)C[C@H]2OCCCC[C@@H](C)Oc3ccc(NC(=O)Nc4cccc5ccccc45)cc3C(=O)N([C@@H](C)CO)C[C@H]2C)cc1
  -7.2[16.7 µM] | 10.9
C[C@H](CO)N1C[C@H](C)[C@H](CN(C)C(=O)Nc2ccccc2)Oc2ccc(NS(=O)(=O)c3ccc(F)cc3)cc2CC1=O
  -17.5[16.7 µM] | -0.8
C[C@@H]1CN([C@H](C)CO)S(=O)(=O)c2ccc(C#Cc3cccc(F)c3)cc2O[C@@H]1CN(C)CC1CC1
  8.0[16.7 µM] | 2.1
CCS(=O)(=O)NCC[C@@H]1CC[C@@H](NC(=O)C2CCCC2)[C@@H](CO)O1
  -8.4[16.7 µM] | -2.3
COc1ccc(S(=O)(=O)Nc2ccc3c(c2)C(=O)N([C@H](C)CO)C[C@H](C)[C@H](CN(C)Cc2ccc(C(=O)O)cc2)OCCCC[C@@H](C)O3)cc1
  8.0[16.7 µM] | 3.0
CC(=O)N(C)C[C@@H]1Oc2ncc(-c3cccnc3)cc2C(=O)N([C@H](C)CO)C[C@H]1C
  15.2[16.7 µM] | -10.8
C[C@@H]1CN([C@H](C)CO)C(=O)c2cc(NS(=O)(=O)c3ccc(Cl)cc3)ccc2O[C@@H](C)CCCCO[C@@H]1CN(C)Cc1ccc(C(=O)O)cc1
  -25.5[16.7 µM] | 3.5
O=C(Nc1cccc(Cl)c1)N[C@H]1CC[C@@H](CCNC(=O)C2CC2)O[C@@H]1CO
  4.0[16.7 µM] | -0.4
C[C@@H]1CCCCO[C@H](CN(C)C(=O)Cc2ccccc2)[C@@H](C)CN([C@@H](C)CO)C(=O)c2cc(NS(=O)(=O)c3ccc(Cl)cc3)ccc2O1
  10.3[16.7 µM] | -6.4
C[C@H](CO)N1C[C@H](C)[C@H](CN(C)C(=O)Nc2ccc(F)cc2)Oc2ccc(NC(=O)NC3CCCCC3)cc2C1=O
  3.0[16.7 µM] | -3.2
C[C@H](CO)N1C[C@H](C)[C@@H](CN(C)C(=O)CCCN(C)C)OCCCC[C@H](C)Oc2ccc(NS(=O)(=O)c3ccccc3)cc2C1=O
  2.7[16.7 µM] | 16.3
C[C@@H]1CCCCO[C@H](CN(C)S(=O)(=O)c2ccc(Cl)cc2)[C@@H](C)CN([C@@H](C)CO)C(=O)c2cc(NC(=O)Nc3ccccc3)ccc2O1
  -5.3[16.7 µM] | -9.0
COc1ccc(NC(=O)Nc2ccc3c(c2)C(=O)N([C@@H](C)CO)C[C@@H](C)[C@H](CN(C)C(=O)c2ccccc2)OCCCC[C@@H](C)O3)cc1
  -8.2[16.7 µM] | 13.2
C[C@H]1CN([C@@H](C)CO)C(=O)c2cc(NC(=O)Nc3cccc4ccccc34)ccc2O[C@@H]1CN(C)C(=O)NC1CCCCC1
  -7.6[16.7 µM] | 5.2
C[C@@H]1CCCCO[C@@H](CN(C)S(=O)(=O)c2cn(C)cn2)[C@H](C)CN([C@H](C)CO)C(=O)c2cc(NC(=O)Nc3cccc4ccccc34)ccc2O1
  -9.8[16.7 µM] | -2.8
C[C@@H]1CN([C@H](C)CO)C(=O)c2cc(C3=CCCCC3)cnc2O[C@@H]1CN(C)C(=O)Nc1ccccc1
  19.3[16.7 µM] | 9.9
CCCNC(=O)N(C)C[C@@H]1Oc2ncc(-c3cccc(C#N)c3)cc2C(=O)N([C@H](C)CO)C[C@H]1C
  -13.9[16.7 µM] | 0.2
O=C(C[C@H]1CC[C@@H](NC(=O)Nc2ccc(F)cc2)[C@@H](CO)O1)NCCN1CCCC1
  -2.3[16.7 µM] | -2.0
CC(C)NC(=O)N(C)C[C@@H]1Oc2ncc(C#Cc3ccncc3)cc2C(=O)N([C@H](C)CO)C[C@H]1C
  -11.3[16.7 µM] | -0.9
C[C@@H]1CN([C@@H](C)CO)C(=O)c2cc(NC(=O)Cc3ccccc3)ccc2O[C@@H](C)CCCCO[C@H]1CN(C)Cc1ccccc1
  -6.2[16.7 µM] | 20.4
CCCN(C)C[C@@H]1OCCCC[C@@H](C)Oc2ccc(NC(=O)Nc3ccc4c(c3)OCO4)cc2C(=O)N([C@H](C)CO)C[C@H]1C
  10.8[16.7 µM] | 38.8

# Compound profiles, from the list above:
# `C[C@@H]1CCCCO[C@@H](CN(C)S(=O)(=O)c2cn(C)cn2)[C@H](C)CN([C@H](C)CO)C(=O)c2cc(NC(=O)Nc3cccc4ccccc34)ccc2O1` is entered as HIV Env fusion = -9.8[16.7 µM]; Yeast UUG start = -2.8
# `C[C@@H]1CCCCO[C@H](CN(C)S(=O)(=O)c2ccc(Cl)cc2)[C@@H](C)CN([C@@H](C)CO)C(=O)c2cc(NC(=O)Nc3ccccc3)ccc2O1` is entered as HIV Env fusion = -5.3[16.7 µM]; Yeast UUG start = -9.0

# Further compounds:
# The line under a structure holds: HIV Env fusion | Yeast UUG start
CC(C)C(=O)Nc1ccc2c(c1)C(=O)N(C)[C@H]1CC[C@@H](CC(=O)N[C@H](C)c3ccccc3)O[C@@H]1CO2
  16.6[16.7 µM] | -3.3
CN1C(=O)c2cc(NC(=O)c3ccccc3)ccc2OC[C@H]2O[C@@H](CC(=O)O)CC[C@@H]21
  5.7[16.7 µM] | -3.2
CCNC(=O)C[C@H]1CC[C@H](NC(=O)C2CCC2)[C@H](CO)O1
  24.3[16.7 µM] | 19.9
Cc1noc(C)c1S(=O)(=O)Nc1ccc2c(c1)CC(=O)N([C@H](C)CO)C[C@@H](C)[C@H](CN(C)Cc1ccc3c(c1)OCO3)O2
  -20.6[16.7 µM] | -10.4
C[C@@H]1CN([C@H](C)CO)C(=O)c2cc(C#CC3(O)CCCC3)cnc2O[C@@H]1CN(C)C(=O)Cc1ccncc1
  3.9[16.7 µM] | -11.4
C[C@H]1CN([C@@H](C)CO)C(=O)c2cc(C#CCC3CCCC3)cnc2O[C@@H]1CN(C)C(=O)CN(C)C
  4.4[16.7 µM] | 9.3
C[C@H]1CN([C@@H](C)CO)C(=O)Cc2cc(NC(=O)C3CC3)ccc2O[C@H]1CN(C)S(=O)(=O)c1cn(C)cn1
  -1.3[16.7 µM] | 0.2
C[C@@H]1CCCCO[C@H](CN(C)C(=O)CCC(F)(F)F)[C@H](C)CN([C@@H](C)CO)C(=O)c2cc(N(C)C)ccc2O1
  46.1[16.7 µM] | -8.1
C[C@H]1CN([C@@H](C)CO)C(=O)Cc2cc(NC(=O)CCCCCC(=O)Nc3ccccc3N)ccc2O[C@@H]1CN(C)S(=O)(=O)c1ccc(F)cc1
  -15.7[16.7 µM] | -4.0
CNC[C@H]1Oc2cc(C#Cc3ccccc3F)ccc2S(=O)(=O)N([C@H](C)CO)C[C@@H]1C
  13.2[16.7 µM] | 137.1*
CC(C)c1cn(CC[C@@H]2CC[C@@H](NS(=O)(=O)Cc3ccccc3)[C@@H](CO)O2)nn1
  1.9[16.7 µM] | -4.3
COc1ccc(S(=O)(=O)N(C)C[C@@H]2Oc3c(NC(=O)Nc4ccc5c(c4)OCO5)cccc3C(=O)N([C@H](C)CO)C[C@H]2C)cc1
  -29.5[16.7 µM] | 8.2
C[C@@H]1CCCCO[C@@H](CN(C)Cc2ccccc2)[C@H](C)CN([C@@H](C)CO)C(=O)c2cc(NS(=O)(=O)c3ccccc3)ccc2O1
  7.2[16.7 µM] | 10.0
O=C(C[C@@H]1C[C@H]2c3cc(NC(=O)Nc4ccc(F)cc4)ccc3O[C@H]2[C@H](CO)O1)NC1CCCC1
  20.2[16.7 µM] | 27.6
C[C@@H]1CCCCO[C@H](CN(C)C(=O)CCCN(C)C)[C@@H](C)CN([C@H](C)CO)C(=O)c2cc(NC(=O)Nc3ccc4c(c3)OCO4)ccc2O1
  0.7[16.7 µM] | -1.3
CCC(=O)N(C)C[C@@H]1Oc2cc(C#CC3CCCC3)ccc2S(=O)(=O)N([C@@H](C)CO)C[C@@H]1C
  6.6[16.7 µM] | 3.0
C[C@@H]1CN([C@H](C)CO)C(=O)Cc2cc(NC(=O)CCCN(C)C)ccc2O[C@H]1CN(C)CC1CCCCC1
  1.1[16.7 µM] | -33.0
COc1ccc(NC(=O)N(C)C[C@@H]2Oc3c(NS(=O)(=O)c4ccc(C)cc4)cccc3C(=O)N([C@@H](C)CO)C[C@H]2C)cc1
  -67.8[16.7 µM] | 23.7
O=C(CN1CCOCC1)N[C@H]1CC[C@H](CCNC(=O)C2CCCCC2)O[C@H]1CO
  16.7[16.7 µM] | -1.9
C[C@H]1CN([C@@H](C)CO)C(=O)c2cc(/C=C/c3ccccc3)cnc2O[C@@H]1CN(C)Cc1cccc(C(=O)O)c1
  8.2[16.7 µM] | 2.8
COc1ccc(S(=O)(=O)Nc2ccc3c(c2)C(=O)N([C@@H](C)CO)C[C@@H](C)[C@H](CN(C)S(=O)(=O)c2cn(C)cn2)OCCCC[C@H](C)O3)cc1
  7.2[16.7 µM] | 2.9
C[C@H]1CN([C@@H](C)CO)C(=O)c2cc(NC(=O)Nc3ccc(F)cc3)ccc2O[C@H]1CN(C)Cc1ccc(Cl)c(Cl)c1
  33.5[16.7 µM] | 0.5
COc1ccc(S(=O)(=O)N(C)C[C@@H]2Oc3cc(-c4cccc(F)c4)ccc3S(=O)(=O)N([C@H](C)CO)C[C@H]2C)cc1
  32.4[16.7 µM] | -0.1
COCC(=O)N(C)C[C@@H]1Oc2cc(-c3ccc(F)cc3)ccc2S(=O)(=O)N([C@H](C)CO)C[C@@H]1C
  -0.3[16.7 µM] | -6.9
COc1cccc(S(=O)(=O)Nc2ccc3c(c2)[C@@H]2C[C@H](CC(=O)NCC(F)(F)F)O[C@@H](CO)[C@@H]2O3)c1
  -2.0[16.7 µM] | 5.2
CCCNC(=O)N1C[C@@H](O)COC[C@@H]2O[C@H](CC(=O)O)CC[C@H]21
  -9.6[16.7 µM] | -15.9
O=C(C[C@H]1C=C[C@H](NC(=O)C2CC2)[C@H](CO)O1)Nc1nccs1
  3.7[16.7 µM] | -16.9
CC(C)NC(=O)N[C@H]1CC[C@H](CCNC(=O)C2CCOCC2)O[C@H]1CO
  24.0[16.7 µM] | -19.8
C[C@@H]1CN([C@H](C)CO)C(=O)Cc2cc(NS(=O)(=O)c3ccccc3)ccc2O[C@H]1CN(C)Cc1ccccc1
  -7.1[16.7 µM] | -17.1

# High-throughput results: PubChem, Broad Institute
